Screening data from PubChem BioAssay.
A488 autofl = qHTS Assay for Spectroscopic Profiling in A488 Spectral Region; compound autofluorescence, A488 spectral region, dye equivalency; active compounds read high; max dye equivalency, M; 59,000 compounds, 0.1% hits; AID 591, 2007; active = above 10 nM dye equivalent; inconclusive = 1 to 10 nM; inactive = 1 nM or less; about half of its hits are not listed in these tables;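 further: highest value over a series up to 38 µM; compound alone in buffer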
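Compound autofluorescence was read in 100 mM Tris pH 8.0 after 15 min at room temperature, ex 480 nm/em 540 nm. Intensities were converted to A488 dye-equivalent concentration using an on-plate six-point A488 standard curve.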
TSHR ag = qHTS Assay for Agonists of the Thyroid Stimulating Hormone Receptor | HEK293-CNG-TSHR cells (CNG channel as cAMP sensor), membrane potential dye, cAMP | Potency, µM (top dose mostly 57.1 µM), for the others: top-dose activation, most hits filed as activators | 73,000 compounds, 0.48% hits | AID 926, 2007; active = well fitted activation curve of enough size with the parental cells flat; inconclusive = any curve in the parental cells; inactive = parental cells flat and receptor cells flat or falling; further: potency means the concentration at half of the fitted maximal effect; % of control where 0% means no effect; weak receptor curves with flat parental cells got no call and are not listed
Target sequence (P16473 whole entry, looked up): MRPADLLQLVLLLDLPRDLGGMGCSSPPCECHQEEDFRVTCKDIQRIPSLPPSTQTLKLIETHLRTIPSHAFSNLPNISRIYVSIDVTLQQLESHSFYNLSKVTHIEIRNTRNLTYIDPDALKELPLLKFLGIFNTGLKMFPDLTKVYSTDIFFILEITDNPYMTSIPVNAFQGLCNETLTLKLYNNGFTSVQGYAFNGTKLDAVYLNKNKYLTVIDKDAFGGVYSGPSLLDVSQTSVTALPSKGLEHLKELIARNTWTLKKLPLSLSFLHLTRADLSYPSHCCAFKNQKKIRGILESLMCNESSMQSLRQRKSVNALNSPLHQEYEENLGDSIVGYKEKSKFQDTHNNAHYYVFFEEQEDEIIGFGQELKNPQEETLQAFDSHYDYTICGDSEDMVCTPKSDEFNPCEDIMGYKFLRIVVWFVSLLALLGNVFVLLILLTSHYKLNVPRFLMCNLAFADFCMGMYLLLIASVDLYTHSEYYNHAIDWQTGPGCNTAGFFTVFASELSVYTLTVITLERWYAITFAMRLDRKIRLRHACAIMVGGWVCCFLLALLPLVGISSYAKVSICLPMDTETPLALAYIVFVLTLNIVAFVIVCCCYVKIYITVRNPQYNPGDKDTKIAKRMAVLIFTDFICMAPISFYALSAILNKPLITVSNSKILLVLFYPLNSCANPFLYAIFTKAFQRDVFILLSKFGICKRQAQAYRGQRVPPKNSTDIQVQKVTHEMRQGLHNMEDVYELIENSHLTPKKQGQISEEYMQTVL
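HEK 293 cells stably expressing TSHR and a cAMP-gated CNG channel; parental CNG-only cells as counterscreen. Cells preloaded 60 min with membrane potential dye plus 100 uM RO 20-1724, then compound 30 min; fluorescence read at 590 nm.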
A647 fluor = qHTS Assay for Spectroscopic Profiling in A647 Spectral Region; 59,000 tested, under 10 active; Compound fluorescence, A647 channel (570/671 nm), Tris buffer; max dye-equivalent concentration, M; active means above 1 µM dye equivalent; inconclusive means 0.1 to 1 µM; inactive means 0.1 µM or less;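 further: values scaled relative to a standard on each plate; highest value over a series up to 38 µM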
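Compounds pinned into 100 mM Tris pH 8.0, 15 min at room temperature, then read with 570 nm excitation/671 nm emission filters. Fluorescence normalized to an on-plate six-point Alexa 647 standard curve, giving dye-equivalent concentration per compound concentration.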
Resorufin fluor = qHTS Assay for Spectroscopic Profiling in Resorufin Spectral Region; 59,000 compounds, 0.04% hits; Compound fluorescence, resorufin region 547/598 nm, buffer; active compounds read high; max dye-equivalent concentration, M; active = above 10 nM dye equivalent; inconclusive = 1 to 10 nM; inactive = 1 nM or less; a few of its hits are not listed in these tables; further: highest value over a series up to 38 µM
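Intrinsic fluorescence profiled in the resorufin window (ex 547 nm, em 598 nm) after 15 min at room temperature in pH 8.0 Tris buffer (100 mM); responses normalized against a six-point resorufin standard series as dye-equivalent concentration.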
AID923 = qHTS Assay for Allosteric/Competitive Inhibitors of Caspase-1: Spectroscopic Profiling in AFC Spectral Region. compound fluorescence, AFC spectral region (405/520 nm); almost no hit is shown here. Potency, µM (doses to about 57.5 µM), without a hit: at the highest dose fluorescence increase, actives largely listed as activators. 75,000 compounds, 1.1% hits. AID 923, 2007; active means well fitted activation curve with a large enough effect; inconclusive means small, poorly fitted or top-dose-only effect;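 further: potency means the concentration at half of the fitted maximal effect; 0% is about no effect; scaled to a free AFC standard on each plate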
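Compound autofluorescence profiled at 405 nm ex/520 nm em during kinetic caspase 1 run (50 nM enzyme, 5 uM Ac-WEHD-AFC, HEPES pH 7.5, 10 mM DTT). Titration up to 57 uM; baseline from regression intercept, normalized to AFC standard curve.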
Starred values were filed as active, the others as inactive; i = inactive; ? = inconclusive; . = not tested or not shown; & = joins results of further samples; [ ] = dose if it differs, or a comment. These rows are one share of the data, so the mix of outcomes need not match the whole.

SMILES | A488 autofl | TSHR ag | A647 fluor | Resorufin fluor | AID923
Clc1ccc([C@@H](OCCN2CCCCC2)c2ccccc2)cc1 | i | . | 7.5e-09 | i | 0.6%[25.7 µM]
NS(=O)(=O)C[C-]1C=C[CH]([Sb-]([Cl])([Cl])([Cl])([Cl])[Cl])C=C1.c1ccncc1 (stereo not drawn) | i | -7%[11.4 µM] | 1e-09 | i | -0.9%[11.5 µM]
Cc1ccc(S(=O)(=O)N[C@@H](CCCCN)C(=O)CCl)cc1 | i | 4% | 5.9e-08 | i | -0.7%
COc1ccc(C2SCC(=O)Nc3c2c(=O)[nH]n3C2CCCCC2)cc1 (stereo not drawn) | i | . | 4.1e-09 | i | .
CN(C)CCc1nn[nH]n1 | i | . | 1e-09 | i | .
CCC1(C)CC(=O)NC(=O)C1 | i | 2%[25.6 µM] | 5.7e-09 | i | 1.2%[25.7 µM]
COc1cc(CN2CC3CC(C2)c2cccc(=O)n2C3)cc(OC)c1OC (stereo not drawn) | . | 7% | . | . | -0.2%
Cc1ccccc1-c1cncnc1NCCc1cnc[nH]1 | i | -1% | 1.1e-08 | i | 1.1%
CCC1(CC)C(=O)NC(=Nc2cccc(C(F)(F)F)c2)NC1=O | i | -1% | 2.4e-08 | i | -2.7%
Nc1ccc(N2CCN(Cc3ccccc3Cl)CC2)c(Cl)c1 | i | -14% | 1e-09 | i | 1.5%

Compound profiles, from the list above.
Profile of CCC1(CC)C(=O)NC(=Nc2cccc(C(F)(F)F)c2)NC1=O : A488 autofl = i; TSHR ag = -1%; A647 fluor = 2.4e-08; Resorufin fluor = i; AID923 = -2.7%
Profile of Cc1ccc(S(=O)(=O)N[C@@H](CCCCN)C(=O)CCl)cc1 : A488 autofl = i; TSHR ag = 4%; A647 fluor = 5.9e-08; Resorufin fluor = i; AID923 = -0.7%

The main list resumes with the 2 entries that preceded the break.
SMILES | A488 autofl | TSHR ag | A647 fluor | Resorufin fluor | AID923
CCC1(CC)C(=O)NC(=Nc2cccc(C(F)(F)F)c2)NC1=O | i | -1% | 2.4e-08 | i | -2.7%
Nc1ccc(N2CCN(Cc3ccccc3Cl)CC2)c(Cl)c1 | i | -14% | 1e-09 | i | 1.5%
CCC(Cl)[N+](=O)[O-] (stereo not drawn) | . | 0% | . | . | 0.9%
CCSCC[C@H](N)C(=O)O | i | 2%[11.4 µM] | 1e-09 | i | 0.6%[11.5 µM]
COc1cccc2c1cc([N+](=O)[O-])c1c(C(=O)O)cc3c(c12)OCO3 | i | 18% | 1e-09 | i | -1.5%&-0.7%
Cc1ccc2cccc(OC(=O)N(C)c3ccccc3)c2n1 | . | 10% | . | . | 1.7%
CCOC(=O)C1CCN(/C=C2/C(=O)NC(=O)N(c3ccc(OCC)cc3)C2=O)CC1 | . | 3% | . | . | 0.3%
CCC(C)(C)c1ccc(O)cc1 | . | 1% | . | . | -0.2%
Nc1ncc([N+](=O)[O-])s1 | . | 0% | . | . | -1.6%
O=P(OCC(F)(F)C(F)F)(N1CCCCC1)N1CCCCC1 | . | 16% | . | . | -0.7%
O=S1(=O)CC2(N3CCOCC3)CCCCC21 (stereo not drawn) | . | 0% | . | . | -0.2%
CC(=O)O[C@H]1CC[C@H]2[C@@H]3CCC4=C[C@@H](C5SCCS5)[C@H](OC(C)=O)C[C@]4(C)[C@H]3CC[C@@]12C | i | 0%[11.4 µM] | 6.4e-09 | i | -1.8%[11.5 µM]
C[N+]1([O-])[C@H]2CC[C@H]1CC(OC(=O)[C@@H](CO)c1ccccc1)C2 (stereo partly drawn) | i | -2%[11.4 µM] | 1e-09 | i | 0.4%[11.5 µM]
CCN1C(=O)c2ccccc2Sc2ccc(C(=O)N3CCC4(CC3)OCCO4)cc21 | i | 4% | 1.9e-09 | i | -2.8%
CN(C)P1(N(C)C)=NC(C(F)(F)F)=NC(C(F)(F)F)=N1 | . | 3% | . | . | 0.8%
C[C@@H]1O[C@H](C[N+](C)(C)C)C[C@H]1O | i | . | 1e-09 | i | 4.3%
COc1ccc(-n2c(O)c(C(C)=NCCN3CCNCC3)c(=O)[nH]c2=O)cc1 | i | 2% | 6.6e-09 | i | 1.8%
N[C@@H](Cc1c[nH]c2ccccc12)c1nnc(SCc2ccc(F)cc2)o1 | i | 8% | 3.4e-09 | i | 4.2%
Nc1ccccc1 | . | ? | . | . | -0.7%
CC(c1ccc(F)cc1)n1cc(C(=O)NCc2ccc3c(c2)OCO3)nn1 (stereo not drawn) | i | 20% | 1.3e-08 | i | -1.7%
COc1ccc(S(=O)(=O)NCc2ccc(C(=O)N3CCC4(CC3)OCCO4)cc2)cc1 | i | -1% | 2e-09 | i | 0.8%
N=c1n(CCO)c2ccccc2n1Cc1ccccc1 | i | ? | 2.2e-09 | i | 0.2%
C[C@H](N)c1cccc(Cl)c1Cl | i | 2% | 2.1e-08 | i | -3.6%
CN(C)c1ccc(N)cc1 | . | -13% | . | . | -0.5%
COc1ccc2c(c[n+](C)c3c4cc5c(cc4ccc23)OCO5)c1OC | i | ? | 4.8e-09 | i | -3.0%
CSc1nc2ccccc2n1C(=O)Oc1ccccc1 | i | ? | 1.1e-08 | i | 3.2%
O=C(O)CSCC(=O)O | i | 2%[11.4 µM] | 4.6e-08 | i | -3.0%[11.5 µM]
COc1ncccc1C(=O)NCC(CC(=O)O)c1ccccc1 (stereo not drawn) | i | 1% | 1e-09 | i | 0.3%
CN1CCN(Cc2nc3ccccc3n2C)CC1 | i | 0% | 1.6e-08 | i | 0.2%
C[C@H](Cc1ccc2c(c1)OC(C(=O)O)(C(=O)O)O2)NC[C@H](O)c1cccc(Cl)c1 | . | -4% | . | . | -1.3%
CCN(CC)CCN=Cc1c(O)n(CCc2ccccc2)c(=O)[nH]c1=O | i | . | 3e-08 | i | .
CC(=NC1CCN(Cc2ccccc2)CC1)c1c(O)n(C)c(=O)n(C)c1=O | i | 2% | 2.5e-08 | i | 1.1%
O=Cc1ccco1 | . | -3% | . | . | -0.4%
CCN(CC)CCO | . | ? | . | . | 4.2%
CN1CC=C(c2c[nH]c3ccccc23)CC1 | . | -2% | . | . | 3.2%
CC(=O)O[C@H]1C[C@@H](O[C@@H]2[C@H](C)O[C@H](O[C@@H]3[C@H](C)O[C@H](O[C@@H]4CC[C@@]5(C)[C@@H](CC[C@]6(C)[C@]5(C)C[C@H](O)[C@]5(C)[C@@H](C7=CC(=O)OC7)CC[C@@]56O)C4)C[C@@H]3O)C[C@@H]2O)O[C@@H](C)[C@H]1O[C@H]1O[C@@H](CO)[C@@H](O)[C@@H](O)[C@@H]1O | i | 2%[25.6 µM] | 3.3e-09 | i | -1.0%[25.7 µM]
O=C(/C=C\c1ccc(Cl)cc1)N[C@@]12CCC(=O)[C@@H]3Oc4c(O)ccc5c4[C@@]31CCN(CC1CC1)[C@@H]2C5 | . | 4% | . | . | -4.4%
CCOC(=O)C1C2c3ccccc3O[C@@]1(C)N=C1SCC(=O)N12 (stereo partly drawn) | i | 6% | 1.1e-08 | i | -1.4%
Clc1ccc(N2C[C@H]3CC[C@@H](C2)N3)nn1 | i | 3% | 1e-09 | i | 0.4%
O=c1c2ccccc2nc(-c2ccco2)n1-c1nccs1 | i | -4% | 1.9e-08 | i | 0.9%
CC(C)(O)[C@@H]1[C@H]2OC(=O)[C@@H]1[C@]1(O)C[C@H]3O[C@]34C(=O)O[C@H]2[C@@]14C (tested in a mixture with another compound) | . | 6% | . | . | -0.3%
N#Cc1c(/N=C/c2c(O)n(Cc3ccco3)c(=O)[nH]c2=O)sc2c1CCCC2 | i | . | 1.1e-09 | i | 4.1%
N#Cc1ccccc1Cn1cc(C(=O)c2cccs2)c2ccccc21 | i | 30% | 1e-09 | i | 1.2%
C/C(Cl)=C/CC1(CN2CCCC2=O)C(=O)NC(=O)NC1=O | i | . | ? | i | .
CN(C)c1ccc(Cc2ccc(N(C)C)cc2)cc1 | . | ? | . | . | 0.0%
CCBr | . | 1% | . | . | 1.1%
CC[N+](CC)(CC)CCOc1cccc(OCC[N+](CC)(CC)CC)c1OCC[N+](CC)(CC)CC | i | ? | 3.6e-08&5.6e-08 | i | -3.8%[25.7 µM]
Cn1c(=O)cc(OCC(=O)N2CCC3(CC2)OCCO3)c2ccccc21 | i | 1%[11.4 µM] | 1e-09 | i | 0.3%
N#CCBr | . | 1% | . | . | 0.9%
NCCCP(=O)(O)CC1CCCCC1 | . | -4% | . | . | -0.7%
O=C(O)CNC(=O)c1ccc([As](=O)(O)O)cc1 | i | 3%[11.4 µM] | 2.6e-08 | i | 2.6%[11.5 µM]
c1ccc(OP(Oc2ccccc2)Oc2ccccc2)cc1 | . | -13% | . | . | 0.2%

Carrying on.
SMILES | A488 autofl | TSHR ag | A647 fluor | Resorufin fluor | AID923
C=CC(=O)OCC | . | -4% | . | . | 2.6%
Clc1cccc2ccccc12 | . | 9% | . | . | 3.2%
c1csc(CN2CC[C@@]3(CCCNC3)C2)n1 | i | 4% | 3.3e-09 | i | 10%
CCCC/C(C)=C/[C@@H](NP(=O)(c1ccccc1)c1ccccc1)c1ccccc1 | . | ? | . | . | 2.5%
CN1CCc2cc3c(cc2[C@@H]1[C@@H]1OC(=O)c2c1ccc1c2OCO1)OCO3 | i | 6%[25.6 µM] | 3.2e-08&1e-09 | i | 1.3%[25.7 µM]
C=CCOC(=O)C1=C(C)OC(N)=C(C#N)[C@@]12C(=O)N(CC(N)=O)c1ccccc12 | i | . | 4.2e-08 | i | .
CCC(=NCCO)c1c(O)n(C2CCCCC2)c(=O)[nH]c1=O | i | -1% | 3.2e-09 | i | -0.5%
O=c1[nH]c(=O)n(-c2cccc3ccccc23)c(O)c1C=NCCCn1ccnc1 | i | . | 1.9e-09 | i | .
Cc1ccc2c(c1)N(CCC(=O)N1CCC3(CC1)OCCO3)C(=O)C(C)O2 (stereo not drawn) | i | 3% | 1e-09 | i | -1.0%
CCC#N | . | -4% | . | . | -1.7%
O=C(O)Cc1cnc[nH]1 | i | ? | 4.4e-08 | i | 0.5%
C1CNC2NCCNC2N1 (stereo not drawn) | i | 1% | 3.4e-08 | i | 0.9%
O=C(O)c1ccc(C(=O)O)cc1 | . | ? | . | . | 1.5%
O=P(N[C@@H](c1ccccc1)[C@@H]1C[C@H]1CO)(c1ccccc1)c1ccccc1 | . | 20% | . | . | -0.1%
O=C1C2CCCN2C(c2ccc(Cl)cc2)N1c1ccccn1 (stereo not drawn) | i | 11% | 2e-09 | i | 2.2%
O=C1C2(Cl)C3(Cl)C4(Cl)C(Cl)(Cl)C5(Cl)C3(Cl)C1(Cl)C5(Cl)C24Cl (stereo not drawn) | . | ? | . | . | -2.2%&-1.4%
O=C(COc1ccccc1)N1CCN(CC(O)COc2ccccc2)CC1 (stereo not drawn) | i | 1% | 1e-09 | i | 0.8%
Cc1ncsc1CCCl | . | 1% | . | . | 0.3%
c1ccc(N2CC[C@@]3(CCCNC3)C2)cc1 | i | 11% | 1.6e-08 | i | 0.9%
O=C1CN=C(c2cccs2)c2c(sc3c2CCCC3)N1 | i | ? | 3.7e-08 | i | 1.0%
Cc1ncc(CNC(=O)N(CCCl)N=O)c(N)n1 | i | 2% | 4.6e-08 | i | 5.2%&1.3%
CCC(=NCc1ccc(F)cc1)c1c(O)n(C)c(=O)n(C)c1=O | i | ? | 2.8e-08 | i | -2.4%
CCCc1[nH]nc2c1C1(C(=O)N(CC(N)=O)c3ccccc31)C(C(=O)OC)=C(N)O2 (stereo not drawn) | i | -2% | 1.9e-09 | i | -0.4%
COc1ccc(CCC(=O)N2CCC3(CC2)OCCO3)cc1 | i | -9% | 1e-09 | i | 0.5%
